Screening data (PubChem)
ALR inh – inhibitors of human sulfhydryl oxidase ALR | AID 485317 | 290,000 tested, 3.8% active | inhibition, % (test concentration not listed) | purified ALR, DTT oxidation, H2O2 HRP-luminol luminescence;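 active means mean and each replicate at 75% or more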;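 further: stock transfer was 7.5 nL into about 7.5 µL; 0% = neutral wells and 100% = wells with inactivated enzyme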
Target sequence (P55789 whole entry, looked up): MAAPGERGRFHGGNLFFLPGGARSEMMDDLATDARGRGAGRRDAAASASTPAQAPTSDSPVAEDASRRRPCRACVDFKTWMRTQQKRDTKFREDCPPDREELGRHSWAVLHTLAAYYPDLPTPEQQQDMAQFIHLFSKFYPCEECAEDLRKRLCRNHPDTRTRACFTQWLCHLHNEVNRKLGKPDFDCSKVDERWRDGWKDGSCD
FGF22 binding – shifts melting point of recombinant human FGF22. calls only at 9.99 µM. 340,000 tested, 1.5% active. recombinant FGF22 thermal shift, SYPRO orange fluorescence; percent of sucrose octasulfate shift, DMSO zero;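 active means melting point raised past a set limit in the mean and every replicate; three in four hits are not shown here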
UCH37 inh – human UCH37 deubiquitinating enzyme inhibition | 330,000 tested, 0.33% active | inhibition, % (concentration not given with the values) | purified proteasome/UCH37, Ub-AMC cleavage fluorescence | Q9Y5K5;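 active means mean of two replicates above 20%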;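 further: 0% = compound-free wells with enzyme and 100% = wells lacking proteasome; stock transfer was 100 nL into about 20 µL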
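Assay system: Proteasome-bound UCH37. Buffer or medium: pH 7.4 Tris-HCl (50 mM) with ovalbumin, ATP-MgCl2, DTT. Incubation: 30 min preincubation with enzyme, 25 min cleavage at room temperature. Measured by: fluorescence, ex 355 nm, em 460 nm. Read-out basis: percent inhibition. Control set: wells without proteasome as full block, compound-free enzyme plus substrate as uninhibited.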
Ecoli growth – inhibitors of Escherichia coli growth. OD600, 23 h; active compounds read low. AID 1053175. OD600 absorbance (no concentration beside the values). 330,000 tested, 0.21% active;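 active means OD600 absorbance below the run mean of sample wells minus 3.6 SD, in any replicate, cut at about 0.56 in these data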;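 further: stock transfer was 300 nL into about 60 µL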
HNF4A DNA FP – change in binding of human HNF4 alpha to DNA | AID 1224865 | HNF4a-FITC DNA binding, fluorescence polarization, 1 h | 360,000 tested, 0.3% active | activity change, % at 10 µM | P41235; in the data active means activity change above about 30%, passing the limit was not always enough;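 further: controls were the assay level and a saturating level of protein; the project sought stronger binding though the title names inhibitors; some compounds called inactive have numbers as strong as hits; positive values seem to mean higher polarization but the record does not say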
Target sequence (P41235 whole entry, looked up): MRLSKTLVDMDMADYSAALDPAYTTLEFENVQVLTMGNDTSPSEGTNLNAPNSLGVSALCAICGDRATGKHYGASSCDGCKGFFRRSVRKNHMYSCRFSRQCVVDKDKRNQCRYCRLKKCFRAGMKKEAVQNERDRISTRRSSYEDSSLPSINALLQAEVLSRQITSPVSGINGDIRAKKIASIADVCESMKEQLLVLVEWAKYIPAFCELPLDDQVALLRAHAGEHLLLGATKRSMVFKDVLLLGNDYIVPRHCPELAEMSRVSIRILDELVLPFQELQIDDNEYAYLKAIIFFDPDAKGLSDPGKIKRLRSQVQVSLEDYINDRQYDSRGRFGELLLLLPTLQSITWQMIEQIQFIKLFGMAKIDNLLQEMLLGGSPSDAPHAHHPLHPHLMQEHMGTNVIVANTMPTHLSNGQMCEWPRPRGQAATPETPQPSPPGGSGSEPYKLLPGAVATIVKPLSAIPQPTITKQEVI
B2AR ag – agonists of human beta-2 adrenergic receptor inducing internalization; Am2.2-beta2AR cells, FAP receptor internalization, flow cytometry; reference of the scale not given here; response, % (no concentration beside the values); 340,000 tested, 0.43% active; AID 504454;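 active means response above a set limit, near 3 SD of response in nonfluorescent compounds, cut at about 42% in these data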;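 further: stock transfer was 100 nL into about 11 µL; a reference agonist was the positive control; negative values mostly stem from fluorescent compounds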
Target sequence (P07550 whole entry, looked up): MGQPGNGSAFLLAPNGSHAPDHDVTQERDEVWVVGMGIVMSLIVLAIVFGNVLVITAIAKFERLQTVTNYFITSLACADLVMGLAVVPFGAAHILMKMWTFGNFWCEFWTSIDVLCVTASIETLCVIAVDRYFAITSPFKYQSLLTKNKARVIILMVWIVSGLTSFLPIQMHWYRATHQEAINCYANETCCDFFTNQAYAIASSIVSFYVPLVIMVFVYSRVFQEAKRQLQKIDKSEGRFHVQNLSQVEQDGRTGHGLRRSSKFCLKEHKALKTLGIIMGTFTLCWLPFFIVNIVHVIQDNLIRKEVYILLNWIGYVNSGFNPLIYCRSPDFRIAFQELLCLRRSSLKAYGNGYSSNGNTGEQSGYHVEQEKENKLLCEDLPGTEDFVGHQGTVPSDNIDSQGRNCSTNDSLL
LANA-H2A inh – blocks KSHV LANA binding to histone H2A/H2B; Q9QR71; cell-free LANA-H2A/H2B peptide, fluorescence polarization; inhibition, % (concentration not given with the values); 320,000 tested, 0.6% active; in the data active means inhibition mostly above about 10%, no sharp cut-off; inactive means mostly below about 6.7%;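 further: stock transfer was 7.5 nL into about 10 µL; 0% = median of vehicle wells and 100% = median of positive control wells; one replicate is shown; the record names a cut of 25% in any replicate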
* = called active by the depositor; i = inactive; nt = not tested or not shown.

Structure	ALR inh	FGF22 binding	UCH37 inh	Ecoli growth	HNF4A DNA FP	B2AR ag	LANA-H2A inh
O=C(CCCCO)CCCCCCCC[C@H]1N[C@H](CO)[C@H](O)[C@@H]1O[C@@H]1O[C@H](CO)[C@@H](O)[C@H](O)[C@H]1O	nt	nt	nt	nt	3.1	3.7	1.5
COc1cc(/C=N\NC(=O)c2ccc(Cn3cc(Br)c([N+](=O)[O-])n3)o2)cc(OC)c1O	99.8*	nt	nt	nt	-2.3	0.3	-1.6
O=C(O)C(CCc1ccccn1)c1ccccc1 (stereo unspecified)	nt	i	0.3	0.63	0.1	0.8	nt
CC(C)Cn1c(N)c(C(=O)CSc2nnnn2-c2ccc(Cl)cc2)c(=O)n(C)c1=O	nt	i	6.2	0.716	0.1	0.6	nt
COc1ccc(C(=O)O)cc1S(=O)(=O)NCc1ccncc1	-12.3	i	3.5	0.699	1.4	-1.5	7.5
Cc1ccc(S(=O)(=O)NC2CCCC2)cc1C(N)=O	-5.6	i	3.8	0.691	-1.8	1.8	-3.8
CN(CCC1CCOCC1)C(=O)C1CCC(=O)N(CCc2ccccc2)C1 (stereo unspecified)	-2.2	i	4.5	0.683	-2.5	-4.0	1.2
O=C(COc1cnc2ccccc2n1)NCCC1=CCCCC1	-5.5	nt	-14.9	0.658	-5.5	0.7	4.2
COc1cc(NC(=O)C2CC(c3ccc(Cl)cc3)=NO2)cc(OC)c1OC (stereo unspecified)	-7.4	i	nt	nt	-1.7	-9.2	-0.2
O=c1[nH]c(/C=C/c2ccc([N+](=O)[O-])cc2)c([N+](=O)[O-])c(=O)[nH]1	74.6	i	14.2	0.696	-4.0	5.2	-0.1
O=C(O)C1CCC(Cn2c(SCc3cc(=O)n4ccccc4n3)nc3ccsc3c2=O)CC1 (stereo unspecified)	1.6	i	-18.0	0.718	2.3	1.4	0.1
CCOC(=O)c1c(NC(=O)OC)sc(C(=O)N(C)C)c1C	0.2	nt	-2.3	0.761	4.0	3.4	-1.5
OC(CNC1CCCCC1)CNC1CCCCC1	0.1	nt	1.8	0.681	-1.2	1.5	-0.3
Cc1ccc(S(=O)(=O)Nc2ccc3c(c2)CCC3)cc1C	1.2	nt	-1.0	0.703	3.5	-0.2	-2.3
O=C(OCCOc1ccccc1Cl)c1cc(S(=O)(=O)N2CCCCC2)ccc1N1CCOCC1	nt	i	-0.3	0.69	-0.5	4.5	nt
CN(C)c1ccc(C(C(=O)NC2CCCC2)N(Cc2cccnc2)C(=O)c2snc(C(N)=O)c2N)cc1 (stereo unspecified)	11.4	i	2.4	0.675	5.4	6.8	5.9
COc1ccc2nc(N3C(=O)/C(=C/c4ccccc4)NC3=S)sc2c1	-1.4	i	11.0	0.722	108.5	-16.1	-6.4
O=C(OCCN1CCCCC1)c1ccc(O)cc1	17.3	nt	4.1	0.644	1.2	-1.6	3.2
C1CN(CC23CC4CC(CC(C4)C2)C3)CCO1	-4.2	nt	6.1	0.721	5.1	7.7	0.7
O=C(COc1cccc(Cl)c1)NCc1ccccc1	-10.4	i	4.3	0.672	0.6	-5.1	-5.0
COc1ccc(NC(=O)C(=O)NCC(c2ccco2)N2CCc3ccccc3C2)cc1 (stereo unspecified)	-1.3	i	-1.7	0.691	-1.0	-6.8	5.4
COc1ccc(CN2CCC(N3CC(C)OC(C)C3)CC2)c(OC)c1 (stereo unspecified)	4.8	i	0.9	0.669	-0.7	-11.2	1.4
CC(NC(=O)c1ccco1)C1COc2ccccc2O1 (stereo unspecified)	8.1	nt	4.3	0.701	-1.4	-3.6	0.4
COc1cc2oc(=O)cc(-c3ccc(-c4ccc(OC(F)(F)F)cc4)cc3)c2c(OC)c1OC	nt	i	-7.8	0.723	-28.9	-6.2	nt
C=CCc1ccc(OCCCNC2CCCC2)c(OC)c1	nt	i	6.5	0.687	1.9	-8.1	-8.8
Cc1ccc(CNC(=O)Cn2nnc(C(=O)Nc3ccc(Br)cc3)c2N)cc1	0.2	i	1.0	0.645	-3.9	-4.0	4.1
CC(=O)c1ccc(S(=O)(=O)N2CCCC2)cc1	-24.4	nt	0.6	0.689	0.2	11.1	-0.2
CC(C)(C)c1cc(NC(=O)c2cc(F)c(F)c(F)c2F)no1	-2.6	nt	-3.4	0.722	-2.2	-2.7	-1.4
CCC(=O)N(CCc1ccccc1C)Cc1cc2ccc(C)cc2[nH]c1=O	-1.3	i	-3.4	0.675	-3.4	-2.8	1.2
O=C(NC1CCCCC1)c1cc(-c2ccc(F)cc2)on1	2.6	i	1.0	0.7	3.4	8.4	2.2

Three of the entries above in order of the HNF4A DNA FP value, descending:
mol	ALR inh	FGF22 binding	UCH37 inh	Ecoli growth	HNF4A DNA FP	B2AR ag	LANA-H2A inh
O=C(O)C1CCC(Cn2c(SCc3cc(=O)n4ccccc4n3)nc3ccsc3c2=O)CC1 (stereo unspecified)	1.6	i	-18.0	0.718	2.3	1.4	0.1
C=CCc1ccc(OCCCNC2CCCC2)c(OC)c1	nt	i	6.5	0.687	1.9	-8.1	-8.8
COc1ccc(NC(=O)C(=O)NCC(c2ccco2)N2CCc3ccccc3C2)cc1 (stereo unspecified)	-1.3	i	-1.7	0.691	-1.0	-6.8	5.4

More compounds
Structure	ALR inh	FGF22 binding	UCH37 inh	Ecoli growth	HNF4A DNA FP	B2AR ag	LANA-H2A inh
Cn1c(=O)n(CCOc2ccc([N+](=O)[O-])cc2)c2ccccc21	-14.1	i	7.2	0.652	0.8	-7.2	-5.2
COc1ccc(CC(=O)Nc2c(C(=O)N3CCN(c4ncccn4)CC3)oc3ccccc23)cc1	-6.7	i	1.0	0.683	2.4	8.0	3.2
CCOC(=O)c1c(SC)[nH]c2c(Cl)cccc2c1=O	1.2	i	2.4	0.693	-1.2	-7.5	1.5
Cc1ccc(C)c(SCC(=O)NNC(=O)c2ccccc2)c1	-2.4	i	3.9	0.697	-3.3	12.6	2.5
O=C(Oc1cccc(-n2cnnn2)c1)c1ccccc1	nt	i	1.2	0.705	0.3	4.5	-1.2
COCCCNC(=O)CC(NS(=O)(=O)c1ccc(C)cc1)c1ccc(OC)cc1 (stereo unspecified)	-2.7	i	0.6	0.708	4.4	-3.3	2.4
COC(=O)CSCC(=O)Nc1cc2c(cc1C(C)=O)OCO2	-4.1	nt	-1.3	0.7	1.1	7.8	-1.4
CCOC(=O)C(Cc1ccccc1)NS(=O)(=O)c1ccc(NC(C)=O)cc1 (stereo unspecified)	-23.7	nt	3.0	0.708	0.0	-1.0	0.4
O=C(Nc1nc(-c2ccc(Cl)cc2)cs1)C1CCCO1 (stereo unspecified)	-0.2	i	1.6	0.65	2.0	-4.4	-4.4
O=C(Cn1c(=O)c2c(ncn2Cc2ccccc2)n(Cc2ccccc2)c1=O)NC1CC1	-1.6	nt	5.8	0.746	4.6	-4.8	-3.3
O=C1C(Cl)=C(NCC2CCCO2)C(=O)N1c1ccccc1 (stereo unspecified)	-0.2	nt	6.2	0.689	4.5	-9.3	1.1
Cc1ccc(Cc2c[nH]c(=S)s2)cc1	61.5	i	5.1	0.635	-1.5	5.3	-3.1
O=C(CSc1nnc(Cc2cccs2)n1Cc1ccco1)Nc1ccc(Cl)cc1Cl	29.5	nt	1.8	0.669	4.6	-4.0	3.0
CSc1cccc(NC(=O)CCn2c(=O)c3cccn3c3cccnc32)c1	-0.5	i	-2.5	0.626	-1.4	-6.5	2.1
COc1cccc(N2CC(NC(=O)c3cccc4ccccc34)CC2=O)c1 (stereo unspecified)	-0.7	i	5.5	0.651	-2.8	-3.4	6.5
COc1ccc(OC)c(NC(=O)CN2C(=O)c3ccccc3S2(=O)=O)c1	-10.0	nt	0.8	0.705	-2.6	3.4	1.8
C[C@H](O)[C@@H]1C(=O)N2CCc3ccc(-c4cccc(F)c4)cc3[C@@H]2C[C@@H]1N(C)C(=O)Nc1ccccc1	nt	i	3.4	0.69	3.1	5.4	nt
CN(C)/C=C/C(=O)/C=C/c1ccc(Cl)cc1	63.1	i	nt	nt	2.6	-1.8	4.4
Cc1ccc(S(=O)(=O)NC(=O)Nc2ccc(Cl)cn2)cc1	0.1	i	2.0	0.657	0.2	13.3	-2.3
COC(=O)C(C)Sc1nc(N)c(NC(=O)c2ccco2)c(=O)[nH]1 (stereo unspecified)	-7.8	i	-0.1	0.765	-4.0	-7.9	-0.3
CCOC(=O)c1ccc(N2C=C(C(=O)OC)C(c3ccc(OC)c(O)c3)C(C(=O)OC)=C2)cc1	-1.0	i	-27.8	0.701	2.4	9.9	-0.7
CCOc1cccc(C(=O)NC(=S)Nc2ccc(N3CCCC3)cc2)c1	1.0	nt	0.5	0.767	0.7	1.5	-7.0
CC(C)(C)c1cc(NC(=O)c2cccnc2)no1	-0.9	nt	0.8	0.665	5.5	4.0	2.2
CONC(=O)Nc1ccccc1[N+](=O)[O-]	nt	nt	0.1	0.655	2.8	-1.0	-5.0
CCN(CC)CCNC(=O)c1cn(CC)c2ccc(S(=O)(=O)N3CCc4ccccc4C3)cc2c1=O	-3.9	i	6.0	0.679	0.1	-8.6	-0.9
Cc1ccc(NC(=O)CSc2nc3[nH]ncc3c(=O)[nH]2)cc1Cl	-1.0	i	3.5	0.637	-2.8	2.9	3.5
COc1cc2cc(C(c3nnnn3C3CCCCC3)N(C)C3CCCCC3)c(=O)[nH]c2cc1OC (stereo unspecified)	nt	nt	-20.9	0.688	1.7	5.5	4.5
Fc1ccc(CNCc2ccc(Br)cc2)cc1	-5.2	nt	-0.8	0.657	-1.4	-1.5	-3.6
Cc1cc(C)nc(NC(=O)/C=C/c2ccc(Cl)cc2Cl)c1	-8.6	nt	-1.0	0.752	3.2	6.0	-0.2
O=C(OC1CSc2nc3ccccc3n2C1)c1ccco1 (stereo unspecified)	-13.6	nt	2.0	0.712	-1.6	-3.2	4.9
O=C(NCc1cccs1)c1ccc(S(=O)(=O)N2CCCCC2)cc1	-3.0	nt	6.1	0.699	1.0	6.9	5.3
COc1ccc(NC(=O)c2ccccc2N(Cc2ccccc2)S(C)(=O)=O)cc1	-23.0	nt	-0.6	0.671	-0.5	3.9	1.4
CCOc1ccc2nc(NC(=O)C(CCSC)NS(=O)(=O)c3cccs3)sc2c1 (stereo unspecified)	nt	nt	1.0	0.761	-2.9	14.3	2.3
Cc1ccc(S(=O)(=O)N2CCOC2CNC(=O)C(=O)NCc2ccco2)cc1 (stereo unspecified)	1.6	i	-2.8	0.723	-0.2	2.2	2.7
Cc1ccc(S(=O)(=O)N(C)c2nc3ccccc3n3c(C(C)C)nnc23)cc1	-8.9	i	-2.7	0.728	26.8	0.4	-4.2
CN(NC(=O)/C=C/C(=O)O)c1ncc(C(F)(F)F)cc1Cl	-11.4	i	0.9	nt	-4.1	0.8	1.7
Cc1ccccc1OCC(=O)NC(=S)Nc1ccccc1N1CCN(S(C)(=O)=O)CC1	4.2	i	3.5	0.723	1.4	6.5	-4.3
CC1(C)OCC(C2CC(c3ccccc3)NS(=O)(=O)O2)O1 (stereo unspecified)	-5.7	i	-0.2	0.693	-0.4	1.8	1.1
COC1=CC(=O)C=C(OC)C1=O	nt	i	nt	nt	-2.4	53.0*	nt
COc1ccc(NC(=O)C2CCN(S(C)(=O)=O)CC2)cc1	-2.7	i	1.2	0.682	3.3	1.1	3.0
CC(C)Oc1cccc(C(=O)Nc2ccc(N3CCN(C)CC3)cc2)c1	-3.2	i	-0.1	0.687	1.9	-8.6	-2.3
Cc1cc(C)c[n+](CC(=O)c2ccccc2)c1	20.2	i	-0.1	0.676	1.3	1.7	7.4
CC1CCc2c(sc3ncnc(SC(C)C(=O)NCC4CCCO4)c23)C1 (stereo unspecified)	nt	i	0.0	0.635	2.0	3.3	-1.3
CCNC(=O)C(=O)Nc1ccc2c(c1)N(S(=O)(=O)c1cccs1)CCC2	nt	i	3.9	0.669	2.5	-8.5	1.1
O=C(CSc1nc2sccc2c(=O)[nH]1)N1CCN(c2ccccc2)CC1	59.0	i	-0.5	0.702	-4.3	14.4	-6.3

These rows are one share of the data (hit frequency here may not be typical).
